p53 HeLa – p53 stabilisation in HPV-positive human cells, imaging, p53-positive nuclei imaging, 24 h, 48 h (AID 1508601); p53-positive nuclei, normalised, % at 11 µM unless noted; Cellular tumor antigen p53 (Homo sapiens); p53-positive nuclei imaging, 48 h; hits give high values; some inactives read as strong as hits; 5,700 tested, 1% active;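 active means mean of two plates above 50% at 24 h or at 48 h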;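 further: HPV-positive HeLa cells with a fluorescent p53 stability reporter; 0% = vehicle and 100% = proteasome inhibitor control; doses worked out from stocks diluted about 900-fold with the highest of each compound shown; many of its hits are not listed in these tables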
p53 HeLa cells 24 h – also measured in p53 HeLa; calls as there; nuclei count, normalised, %; measured here: cell number at 24 h;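 100% = vehicle wells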
p53 HeLa p53 24 h – recorded beside p53 HeLa, whose call it bears; p53-positive nuclei, normalised, %; measured here: p53 positive nuclei at 24 h;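 0% = vehicle and 100% = positive control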
p53 HeLa cells 48 h – recorded beside p53 HeLa, whose call it bears; nuclei count, normalised, %; measured here: cell number at 48 h;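 100% = vehicle wells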
The depositor's hits bear a star; [ ] = another dose, or the depositor's remark.

structure | p53 HeLa | p53 HeLa cells 24 h | p53 HeLa p53 24 h | p53 HeLa cells 48 h
COC(=O)C=CC(=O)N(O)CCCCNCc1ccc(COC(=O)Nc2cccc3ccccc23)cc1 | -0.6 | 97.3 | 0.0 | 92.8
CCCc1ncc(C[n+]2ccccc2C)c(N)n1 | 0.0[3.7 µM] | 111.9 | -0.1 | 106.9
COc1cc(Cc2cnc(N)nc2N)c2c(c1OC)OC(C1CC1)C=C2 (configuration not stated) | 0.1 | 88.2 | -0.1 | 89.8
C=CCC1C=C(C)CC(C)CC(OC)[C@@H]2O[C@@](O)(C(=O)C(=O)N3CCCC[C@@H]3C(=O)OC(C(C)=CC3CCC(O)C(OC)C3)C(C)C(O)CC1=O)C(C)CC2OC (some centres not stated) | -0.1 | 102.0 | 0.0 | 105.3
CC(CNC(=O)c1cccnc1)NC(=O)c1cccnc1 (configuration not stated) | 0.0[3.7 µM] | 106.5 | -0.2 | 104.2
CCCCCCCCCCCC1=C(O)C(=O)C=C(O)C1=O | 1.7[3.7 µM] | 121.2 | 1.8 | 102.8
COCCNCCCn1c(C(=O)CF)c(-c2ccc(C)cc2)c2c(N)ncnc21 | 0.3 | 99.5 | 0.1 | 99.4
OCC1OC(O[C@]2(CCl)OC(CCl)C(O)C2O)C(O)C(O)C1Cl (some centres not stated) | -0.1[3.7 µM] | 108.7 | -0.3 | 102.3
O=S(=O)(Nc1ccc(C(O)(C(F)(F)F)C(F)(F)F)cc1)c1cccs1 | -0.1 | 118.8 | -0.2 | 122.2
CCC1=C(C)CN(C(=O)NCCc2ccc(S(=O)(=O)NC(=O)NC3CCC(C)CC3)cc2)C1=O (configuration not stated) | -0.7[3.7 µM] | 111.5 | -0.3 | 109.0
COc1ccccc1-c1nnc(NC(=O)C(C)SC2=NCCS2)s1 (configuration not stated) | 0.0 | 106.3 | 0.0 | 102.2
CC=CCC(C)C(O)C1C(=O)NC(CC)C(=O)N(C)CC(=O)N(C)C(CC(C)C)C(=O)NC(C(C)C)C(=O)N(C)C(CC(C)C)C(=O)NC(C)C(=O)NC(C)C(=O)N(C)C(CC(C)C)C(=O)N(C)C(CC(C)C)C(=O)N(C)C(C(C)C)C(=O)N1C (configuration not stated) | -0.7[3.7 µM] | 119.6 | -0.3 | 121.5
CC(CN(C)C)Oc1nc(Nc2cc3cccc(Cl)c3cn2)cnc1C#N (configuration not stated) | 11.2 | 55.9 | 1.2 | 31.6
CN(Cc1cc(Br)cc(Br)c1N)C1CCCCC1 | 0.1[3.7 µM] | 107.3 | 0.2 | 107.4
CN1CCCN(C(=O)c2cccc(-c3ccc(C=C4C(=O)Nc5ccc(Cl)cc54)o3)c2)CC1 | 0.1[3.7 µM] | 52.2 | -0.2 | 34.5
CC(=O)NC(Cc1ccc(O)cc1)C(=O)NC(C(=O)NC(C)C(=O)NC(C=O)CC(=O)O)C(C)C (configuration not stated) | 0.0 | 116.3 | 0.0 | 113.8
CC(C)NCC(O)COc1ccc(COCCOC(C)C)cc1 (configuration not stated) | -0.5[3.7 µM] | 108.4 | -0.3 | 102.3
O=C(O)CC1CC(c2ccccc2)=NO1 (configuration not stated) | 0.0[3.7 µM] | 115.2 | -0.3 | 109.4
COc1cc(C(=O)NC2CCN(C)CC2)ccc1Nc1ncc2c(n1)N(C1CCCC1)CC(F)(F)C(=O)N2C | 1.1[3.7 µM] | 26.7 | 0.2 | 18.8
CC(C)(C)NCC(O)COc1cccc2c1CCC(=O)N2 (configuration not stated) | 1.8[3.7 µM] | 99.9 | 4.7 | 98.5

Additional compounds:
structure | p53 HeLa | p53 HeLa cells 24 h | p53 HeLa p53 24 h | p53 HeLa cells 48 h
Nc1c(Br)cc(Br)cc1CNC1CCC(O)CC1 (configuration not stated) | -0.2[3.7 µM] | 110.5 | -0.5 | 107.8
COc1cc(O)c(CC=C(C)C)c(O)c1C(=O)C=Cc1ccc(O)cc1 | 0.2 | 100.8 | 0.2 | 107.1
Nc1nc(N)c2nc(-c3cccc(O)c3)c(-c3cccc(O)c3)nc2n1 | -0.6[3.7 µM] | 106.4 | -0.3 | 101.9
COC1C(=O)[C@]2(C)C(OC)C[C@H]3OC[C@@]3(OC(C)=O)[C@H]2C(OC(=O)c2ccccc2)[C@@]2(O)CC(OC(=O)C(O)C(NC(=O)OC(C)(C)C)c3ccccc3)C(C)=C1C2(C)C (some centres not stated) | 0.1[3.7 µM] | 38.9 | 0.8 | 30.9
Cn1c(N2CCCCS2(=O)=O)nc(C(=O)NCc2ccc(F)cc2)c(O)c1=O | -0.4[3.7 µM] | 110.7 | -0.3 | 111.3
Cc1cc(C(=O)NOCCO)c(Nc2ccc(I)cc2F)n(C)c1=O | 0.3 | 97.2 | 0.8 | 95.9
CC(C=CC1=C(C)CCCC1(C)C)=CC=CC(C)=CC(=O)O | 0.1 | 109.1 | 0.1 | 97.3
CCCc1nc(C(C)(C)O)c(C(=O)OCc2oc(=O)oc2C)n1Cc1ccc(-c2ccccc2-c2nn[nH]n2)cc1 | 0.0 | 104.8 | -0.1 | 105.0
CCCOc1ccc(C=C2SC(=O)NC2=O)cc1 | 0.0 | 106.1 | -0.1 | 109.4
O=C1C(Cc2ccc(O)cc2)N2C(=O)CCN(C(=O)NCc3ccccc3)[C@H]2CN1Cc1cccc2ccccc12 (some centres not stated) | -0.3[3.7 µM] | 118.1 | -0.5 | 114.1
NC(=Nc1ccc(CCNCc2cccc(Cl)c2)cc1)c1cccs1 | -0.3 | 104.7 | -0.1 | 100.9
CON=C(C(=O)NC1C(=O)N2C(C(=O)OCOC(=O)C(C)(C)C)=C(C=Cc3scnc3C)CS[C@H]12)c1csc(N)n1 (some centres not stated) | 0.1[3.7 µM] | 106.7 | -0.1 | 102.0
COC1C=CO[C@@]2(C)Oc3c(C)c(O)c4c(O)c(c(C=NN5CCN(C)CC5)c(O)c4c3C2=O)NC(=O)C(C)=CC=CC(C)C(O)C(C)C(O)C(C)C(OC(C)=O)C1C (some centres not stated) | -0.1[3.7 µM] | 86.9 | -0.2 | 92.5
CC1C(=O)O[C@H]2C(O)C34C5CC(C(C)(C)C)C36C(O)C(=O)O[C@H]6O[C@]4(C(=O)O5)[C@@]12O (some centres not stated) | 0.0[3.7 µM] | 82.3 | -0.5 | 86.6
NC(=O)C(Cc1ccccc1)NC(=O)C(CCCN=C(N)N)NC(=O)C12CC3CC(CC(C3)C1)C2 (configuration not stated) | -0.1 | 83.0 | -0.1 | 87.9
O=S(=O)(c1ccccc1)c1cnc2c(N3CCNCC3)cccc2c1 | -0.3[3.7 µM] | 110.8 | -0.6 | 107.5
COc1cc(N2CCN(C)CC2)ccc1Nc1nc(N)c(C(=O)c2c(Cl)cccc2Cl)s1 | 0.0 | 69.5 | 0.0 | 72.2
CC(C)Cn1cnc2c(N)nc3ccccc3c21 | -0.2 | 82.8 | -0.1 | 83.0
C=CCc1cccc(C=NNC(=O)CN2CCN(Cc3ccccc3)CC2)c1O | 0.1 | 90.3 | -0.1 | 82.7
COc1cccc(Nc2c(C(N)=O)cnc3c(C)cc(S(=O)(=O)c4cccc(C(=O)N(C)C)c4)cc23)c1 | -0.2[3.7 µM] | 96.8 | -0.3 | 99.5

Further structures
structure | p53 HeLa | p53 HeLa cells 24 h | p53 HeLa p53 24 h | p53 HeLa cells 48 h
CCC[C@@H]1OC2C[C@H]3[C@@H]4CCC5=CC(=O)C=C[C@]5(C)[C@@H]4C(O)C[C@]3(C)[C@@]2(C(=O)CO)O1 (some centres not stated) | -0.6[3.7 µM] | 100.3 | -0.2 | 95.0
NC(=O)OCC(COC(N)=O)c1ccccc1 | -0.1[3.7 µM] | 110.3 | -0.2 | 105.1
OCC1OC(Oc2cc(O)cc(C=Cc3ccc(O)cc3)c2)C(O)C(O)C1O (configuration not stated) | -0.3[3.7 µM] | 86.3 | -0.4 | 90.9
CC1OC(OCC2OC(Oc3c(-c4ccc(OCCO)c(OCCO)c4)oc4cc(OCCO)cc(O)c4c3=O)C(O)C(O)C2O)C(O)C(O)C1O (configuration not stated) | -0.2[3.7 µM] | 114.4 | -0.5 | 112.5
Nc1nc(OC(c2ccc(-c3cccc(F)c3)cc2)C(F)(F)F)cc(-c2ccc(CC(N)C(=O)O)cc2)n1 (configuration not stated) | 0.1 | 111.1 | -0.1 | 108.8
CC(C)CC(C(=O)NC(Cc1ccc(OCc2ccccc2)cc1)C(=O)NC(C)(C)C)N(C)Cc1ccc(C(C)(C)C)cc1 (configuration not stated) | -0.3 | 112.6 | -0.2 | 109.3
CN1CCCC1Cc1c[nH]c2ccc(CCS(=O)(=O)c3ccccc3)cc12 (configuration not stated) | -0.1 | 109.4 | -0.2 | 110.6
CC(C)(C)Cn1c(N)nc2ccc(-c3[nH]c(C(C)(C)C)nc3-c3ccc(F)cc3)nc21 | 0.0 | 108.2 | 0.1 | 105.3
N#CC(CCCN1CCN(N=Cc2cccnc2)CC1)(c1ccccc1)c1ccccc1 | 0.0 | 118.1 | -0.1 | 113.6
Cn1nccc1-c1cc(C(=O)NCc2ccc(S(C)(=O)=O)cn2)c(=O)n(-c2cccc(C(F)(F)F)c2)c1 | -0.1[3.7 µM] | 112.7 | -0.3 | 105.2
Cc1ccc(Sc2ccccc2N2CCNCC2)c(C)c1 | 0.1[3.7 µM] | 103.1 | -0.3 | 100.7
Cn1cc(-c2ccc(F)c(C(F)(F)F)c2)nc1C1CCN(c2ncnc3[nH]ncc23)CC1 | -0.1 | 104.4 | -0.1 | 101.3
CCCSc1ccc2nc(NC(=O)OC)[nH]c2c1 | 3.8[3.7 µM] | 35.5 | -0.3 | 27.2
CC(C)C(C(=O)Nc1ccc(C(=O)NO)cc1)c1ccccc1 (configuration not stated) | 48.1*[3.7 µM] | 45.5* | 50.4* | 32.0*
O=C(C=Cc1ccc(O)c(O)c1)OC1C[C@@](O)(C(=O)O)CC(O)C1O (some centres not stated) | -0.3[3.7 µM] | 113.7 | -0.5 | 107.8
CC(=O)c1ccc2c(c1)C1C=CCC1C(c1cc3c(cc1Br)OCO3)N2 (configuration not stated) | 0.7 | 45.8 | 0.0 | 30.8
CS(=O)(=O)c1cccc(CNc2nc(Nc3ccc4c(c3)CCC(=O)N4)ncc2C(F)(F)F)c1 | 1.3 | 48.4 | 0.8 | 28.9
COc1cc2c(cc1OC)CN(CCc1ccc(NC(=O)c3cc(OC)c(OC)cc3NC(=O)c3cnc4ccccc4c3)cc1)CC2 | 0.1[3.7 µM] | 109.0 | -0.1 | 106.3
Cc1nc2sccn2c(=O)c1CCN1CCC(=C(c2ccccc2)c2ccc(F)cc2)CC1 | 0.1 | 94.7 | 0.2 | 101.1
COc1ccc2cc1Oc1ccc(cc1)CC1c3cc(c(OC)cc3CCN1C)Oc1c(OC)c(OC)cc3c1C(C2)N(C)CC3 (configuration not stated) | 0.0[3.7 µM] | 80.5 | -0.2 | 86.0

Filtered by structure: those above containing a thiophene ring, fused or not (2)
structure | p53 HeLa | p53 HeLa cells 24 h | p53 HeLa p53 24 h | p53 HeLa cells 48 h
O=S(=O)(Nc1ccc(C(O)(C(F)(F)F)C(F)(F)F)cc1)c1cccs1 | -0.1 | 118.8 | -0.2 | 122.2
NC(=Nc1ccc(CCNCc2cccc(Cl)c2)cc1)c1cccs1 | -0.3 | 104.7 | -0.1 | 100.9

Additional results follow.
structure | p53 HeLa | p53 HeLa cells 24 h | p53 HeLa p53 24 h | p53 HeLa cells 48 h
CN1c2ccc([N+](=O)[O-])cc2N=C(c2ccc(C(=O)O)cc2)c2cc3c(cc21)C(C)(C)CCC3(C)C | 0.2 | 112.0 | -0.1 | 113.3
CNC[C@H](O)c1cccc(O)c1 | -0.3[3.7 µM] | 106.6 | -0.3 | 100.3
O=C(COc1ccc(C(=O)c2ccccc2)cc1)NC1CCN(Cc2ccccc2)CC1 | -0.1[3.7 µM] | 107.7 | -0.2 | 104.9
COc1cc(O)cc(C2CC(=O)c3c(O)cc(OC4OC(CO)C(O)C(O)C4OC4OC(C)C(O)C(O)C4O)cc3O2)c1 (configuration not stated) | -0.4[3.7 µM] | 113.4 | -0.5 | 110.7
CCOC(=O)C(CCc1ccccc1)NC(C)C(=O)N1C(C(=O)O)CC2CCCC21 (configuration not stated) | -0.1[3.7 µM] | 117.2 | -0.1 | 110.6
CC(C)OC(=O)OCOP(=O)(COC(C)Cn1cnc2c(N)ncnc21)OCOC(=O)OC(C)C (configuration not stated) | -0.7[3.7 µM] | 106.5 | 0.2 | 106.7
OCC1OC(Oc2ccc(O)cc2)C(O)C(O)C1O (configuration not stated) | -0.1[3.7 µM] | 109.1 | -0.2 | 108.5
Cc1cc(NC(=O)Nc2ccc(N(C)C)cc2)c2cc(F)cc(F)c2n1 | 0.5 | 96.6 | -0.1 | 99.0
CC(CCc1ccccc1)NCC(O)c1ccc(O)c(C(N)=O)c1 (configuration not stated) | 0.1[3.7 µM] | 111.7 | -0.1 | 108.3
CC(C)C(N)C(=O)OCCOCn1cnc2c(=O)[nH]c(N)nc21 (configuration not stated) | 0.1[3.7 µM] | 108.7 | 0.0 | 101.1
CC(=O)ON=C1C(=O)N(Cc2cc(Cl)ccc2Cl)c2ccc(Cl)cc21 | 0.0[3.7 µM] | 109.9 | -0.2 | 108.4
CC1=NN(c2ccc(C(=O)O)cc2)C(=O)C1=Cc1ccc(-c2cc(C)c(C)cc2[N+](=O)[O-])o1 | -0.7 | 117.5 | -0.1 | 107.7
O=C(O)CSc1cc(NS(=O)(=O)c2ccc(Br)cc2)c2ccccc2c1O | 0.1 | 102.5 | 0.1 | 105.4
CC(C)c1noc(N2CCC(COc3ccc(-c4ccc(S(C)(=O)=O)cc4)nc3)CC2)n1 | -0.1[3.7 µM] | 105.7 | -0.3 | 98.4
CCC1C=C(C)CC(C)CC(OC)C2O[C@@](O)(C(=O)C(=O)N3CCCCC3C(=O)OC(C(C)=CC3CCC(O)C(OC)C3)C(C)C(O)CC1=O)C(C)CC2OC (some centres not stated) | 0.1 | 105.1 | -0.2 | 87.3

These rows are one share of the data (hit frequency here may not be typical).
